CDC25B-CDK2 inh = human CDC25B-CDK2/CyclinA binding inhibition | 0.72% of 94,000 active | z-score (test concentration not listed) | P30305+P24941 | HTRF CDC25B-CDK2/CyclinA binding, anti-His/anti-Flag; stronger effect = higher value | AID 1259370;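 note: score is relative to mean and SD of negative controls; strong numbers were not always called active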
HIV TAR-Tat = HIV-1 TAR-Tat binding disruption; AID 1259389; 0.6% of 100,000 active; z-score (no concentration beside the values); HIV-1 TAR RNA, Tat peptide displacement FRET; stronger effect = higher value;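 note: score is relative to mean and SD of negative controls; some compounds called inactive have numbers as strong as hits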
The depositor's hits bear a star; x = not tested or not shown; & = joins results of further samples.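 Rule for the calls: active = z-score from 3 up in half or more of its runs; inactive = the rest.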

The line under a structure holds: CDC25B-CDK2 inh, HIV TAR-Tat
- Cc1ccc(-c2c(N3CCc4ccccc43)c(=O)c2=O)cc1
  x, 0.47
- CCOC(=O)C(CC)Sc1ccc2nnc(-c3ccccc3)n2n1 (configuration not stated)
  -0.8, x
- Brc1ccc(-c2nc(-c3ccccn3)no2)cc1
  -0.07, -0.06
- CCC(=O)N1c2ccccc2NC2=C(C(=O)CC(C)(C)C2)C1c1ccc(-c2cccc(C(=O)O)c2)o1 (configuration not stated)
  -1.16, 2.14
- O=C(c1cc(-c2ccccc2)no1)N1CCCC1c1cccs1 (configuration not stated)
  -0.5, 1.17
- Cc1ccc(COc2ccc(CC#N)cc2)cc1
  -1.24, x
- C=C1c2ccccc2NC(=O)N1c1cccc(Cl)c1
  -1.39, -0.07
- CCOC(=O)C1C(=O)C(=O)N(C)C1c1ccccc1 (configuration not stated)
  -0.64, x
- Cc1ccccc1-c1noc(-c2nnn(-c3ccccc3C)c2C)n1
  x, 0.65
- Cc1ccc(-c2nc3c(s2)CN(S(=O)(=O)c2ccc4c(c2)oc(=O)n4C)CC3)cc1
  x, 1.37
- O=S(=O)(NCCc1csc2nc(-c3cccs3)nn12)c1ccccc1
  x, -1.14
- CCOC(=O)C1=C(C)Nc2nc(SCC)nn2C1c1cccc(OC)c1OC (configuration not stated)
  -1.05, 0.37
- COc1cc(NS(=O)(=O)c2ccc3c(c2)C(C)(C)C(=O)N3C)cc(OC)c1
  x, 2.12
- CCc1nnc(NC(=O)c2cc(-c3ccc(OC)cc3)nc3ccccc23)s1
  -6.7, x
- N#Cc1nc(-c2ccc(S(=O)(=O)N3CCc4ccccc4C3)cc2)oc1NCc1ccco1
  0.16, 0.26
- O=C(c1cc2c(s1)-c1ccc(Cl)cc1SC2)N1CCOCC1
  -3, 2.78
- CC(C)(C)CC(=O)O/N=C(\N)C1(c2ccc(Cl)cc2Cl)CC1
  -1.02, x
- Brc1ccc(-c2nnc3sc(CNCc4ccco4)cn23)cc1
  x, 0.45
- O=c1[nH]c2ccc(S(=O)(=O)N3CCN(c4ccc(F)cc4)CC3)cc2[nH]c1=O
  -1.71, -0.88
- Cc1cc(NC(=O)CSc2nc3c(c(=O)n2-c2ccccc2)SC(C)C3)no1 (configuration not stated)
  -1.99, -0.9
- CN=C1NC(=O)CC(C(=O)Nc2cc(C(=O)OC)cc(C(=O)OC)c2)S1 (configuration not stated)
  -1.15, 0.36
- CCCOC(=O)COc1ccc2c(=O)c(Oc3cccc(C)c3)c(C(F)(F)F)oc2c1
  -0.87, 1.13
- Cc1cc2nc(-c3cc(N)ccc3O)oc2cc1C
  1.65, 3.05
- CC(C)(C)c1ccc(NC(=O)N2CCCN(CC(=O)N3CCOCC3)CC2)cc1
  -1.42, x
- CC1CCN(c2nc(-c3ccccc3)nc3ccccc23)CC1
  -2.69, x
- CCCc1nn2c(=O)cc(COc3ccc(NS(C)(=O)=O)cc3)nc2s1
  -1.08, 0.22
- CC(=O)N1CCN(c2csc3ccccc3c2=O)CC1
  x, 0.32
- COc1ccc(Cl)cc1C(=O)Nc1c(C)nc2c(C)cccn2c1=O
  x, 1.57
- COc1cccc(CC2C(=O)Nc3ccccc32)c1OC (configuration not stated)
  -0.98, 2.43
- O=C(NCCc1ccccc1)NCCc1csc2c1CCCC2
  x, 0.84
- CCn1c(=O)cc(SCC(=O)N2CCCC2)c2ccccc21
  -1.17, -0.93
- COc1ccc(S(=O)(=O)N2CCN(C)CC2)cc1C
  2.2, -0.01
- C=CCn1c(=S)[nH]c2scc(-c3ccc(C)o3)c2c1=O
  -3.09, x
- N#CC1=C(C#N)NC2(CCCCC2)C2CCCCC2=N1 (configuration not stated)
  -1.53, x
- Cc1ccc(CN(C(=O)COc2ccc(Br)cc2)C2CCS(=O)(=O)C2)o1 (configuration not stated)
  -0.4, 0.34
- O=C1Cc2cc(S(=O)(=O)Nc3ccc(Cl)cc3)cc3c2N1CCC3
  x, 1.3
- NC(=O)c1ccccc1NC(=O)CCC(=O)Nc1ccccc1C(N)=O
  -1.35, x
- COc1ccc(/C=C/c2nc(C#N)c(NCc3ccc(C)cc3)o2)cc1OC
  -0.91, -1.04
- O=C(CCCc1nc(-c2ccco2)no1)Nc1cccnc1
  -0.84, 1.71
- CCCCCn1c(=O)c2sccc2n2c(CCC(=O)N3CCN(C(=O)c4ccco4)CC3)nnc12
  x, -0.53
- O=C1CC(c2ccco2)Cc2nc(N3CCN(Cc4ccc5c(c4)OCO5)CC3)ncc21 (configuration not stated)
  13, -0.1
- CC(C)NS(=O)(=O)c1ccc2c(c1)c(=O)n(CC(=O)N1CCCC1)c(=O)n2C
  x, 1.91
- Cc1cn2c(=O)c(S(=O)(=O)NC(C)c3ccccc3)c(C)nc2s1 (configuration not stated)
  x, 0.09
- Cc1ccc2c(c1)C(Cc1nc3ccccc3c(=O)[nH]1)C(=O)N2Cc1ccccc1 (configuration not stated)
  -1.02, 0.44
- NC(=O)c1sc(=S)n(-c2ccccc2)c1N
  x, 1.65
- O=C(NCCCN1CCCCC1)C1CCn2c(nc3ccccc32)C1 (configuration not stated)
  x, 0.62
- Cc1c(C(=O)N2CCOCC2)oc2c1-c1nn(CC(=O)NCc3ccccn3)cc1CC2
  x, 0.94
- O=C1NC(/C=C/c2ccco2)Nc2sc3c(c21)CCN(Cc1ccccc1)C3 (configuration not stated)
  -0.42, 0.59
- CN1C(=O)Cc2cc(S(=O)(=O)N(C)CCc3noc(-c4ccccc4Cl)n3)ccc21
  x, 1.73
- CCC(C(=O)OCc1cc(=O)n2oc(C)cc2n1)c1ccccc1 (configuration not stated)
  x, -0.31
- Cc1c(CCNS(=O)(=O)c2ccc3c(c2)OCCO3)sc2nc(-c3ccc(F)cc3)nn12
  x, 1.44
- Cc1cc(C)c(C#N)c(Nc2ccccc2)n1
  -0.66, -0.92
- Cn1cc(-c2cc3n(n2)CCC(=O)N3CC(=O)N2CCC(N3CCCCC3)CC2)c2ccccc21
  x, 0.11
- COc1ccc(Cl)cc1Nc1ncnc2sc(C)c(S(=O)(=O)N3CCC(C)CC3)c12
  -0.13, x
- COc1ccc(-c2noc(CSc3nnc(-c4ccccc4)n3C)n2)cc1
  -1.09, -0.75
- Cn1c(-c2ccccc2)cn2cc(-c3ccccc3)nc12
  -0.34, -0.07
- CCC(C(=O)NCc1cccs1)n1cnc2onc(C)c2c1=O (configuration not stated)
  x, 0.69
- C=CCSc1nc2c(c(=O)n1CC1CCCCC1)C1(CCCCC1)Cc1ccccc1-2
  -2.98, x
- CSc1cccc(NC(=O)c2csc3c2CCCCC3)c1
  -1.36, 0.61
- CNC(=O)Oc1ccc2c(c1)[C@]1(C)CCN(C)[C@@H]1N2C
  -2.19, 0.48&1.47&4.21

Looked up by structure from the entries so far (2):
The line under a structure holds: CDC25B-CDK2 inh, HIV TAR-Tat
- O=C1NC(/C=C/c2ccco2)Nc2sc3c(c21)CCN(Cc1ccccc1)C3 (configuration not stated)
  -0.42, 0.59
- N#CC1=C(C#N)NC2(CCCCC2)C2CCCCC2=N1 (configuration not stated)
  -1.53, x

Next compounds:
The line under a structure holds: CDC25B-CDK2 inh, HIV TAR-Tat
- OCCCc1nc2ccccc2n1Cc1cccc(Cl)c1
  -2.48, -0.64
- CSC(=NCc1ccco1)Nc1ccc(C)cc1C
  0.38, x
- Cc1ccc(-c2nc3scc(CCNS(=O)(=O)c4ccc(Br)cc4)n3n2)cc1
  x, 1.63
- CN(C)/C=N/C(=S)Nc1cccc(F)c1
  0.2, x
- Cc1ccc2nc(N3CCN(C(=O)c4ccco4)CC3)c3nncn3c2c1
  0.77, -0.14
- CN(CCc1noc(-c2ccc(Cl)cc2)n1)S(=O)(=O)c1cccc2nsnc12
  x, 0.55
- Cn1c(=O)c2c(-c3cccc(Br)c3)n(-c3ccccc3N)cc2n(C)c1=O
  -0.71, 0.27
- CC1(C)CC(=O)C2=C(C1)N1C(=C(C#N)C2c2cccs2)N=C(N)c2ccccc21 (configuration not stated)
  -1.01, -5.87
- O=[N+]([O-])c1ccc(-c2csc(-c3cnccn3)n2)cc1
  0.67, x
- O=C(Nc1c(C(c2ccccc2)N2CCOCC2)oc2ccccc12)c1cccs1 (configuration not stated)
  -0.54, 0.11
- COc1ccc(CNCc2cccnc2)c(OC)c1
  -0.73, 0.17
- CS(=O)(=O)c1ccc2nc(N)sc2c1
  -1.06, x
- Cc1ccc(Cl)cc1NC(=S)N(CCC#N)/N=C/c1ccc2c(c1)OCO2
  -0.79, x
- Cc1ccc2c(C)nc(NC3=NCN(Cc4ccccc4)CN3)nc2c1
  4.26, 0.61
- O=C(C1COc2cc(S(=O)(=O)N3CCCC3)ccc2O1)N1CCCC1 (configuration not stated)
  x, -0.75
- CCCN1C(=O)C(O)(CC(=O)c2ccncc2)c2ccccc21 (configuration not stated)
  -0.45, 1.84
- COCCN1C(=O)c2cc3oc(C)cc3n2CC1(C)C(=O)NC1CCCCC1 (configuration not stated)
  x, 1.25
- CC(C)C(=O)Nc1c(C(=O)NC(C)(C)C)oc2ccccc12
  x, 1.98
- Cc1ccccc1NS(=O)(=O)c1cc(Br)cnc1N
  -1.39, 1.02
- COc1ccc(C2=C(C)C(N3CCN(c4cc(Cl)ccc4C)CC3)=NS2(=O)=O)cc1
  -6.79, 1.95
- O=C(c1cnn(-c2ccc(F)cc2)c1-n1cccc1)N1CCN(c2ccc(Cl)cc2)CC1
  x, 0.55
- COc1ccc(N2CSC3=C(C#N)C(c4c(OC)ccc5ccccc45)CC(=O)N3C2)c(OC)c1 (configuration not stated)
  3.75*, 1.61
- COC(=O)C/C=C1\CCN2Cc3ccccc3N=C12
  x, -6.94
- C=CCOc1ccc(C2N3CC4(CC)CN2CC(CC)(C3)C4=O)cc1 (configuration not stated)
  1.11, -0.99
- CCOC(=O)c1c2n(c3ccc(OC(C)=O)cc13)CCC2
  -0.53, 1.38
- CCC(C)Nc1sc(S(C)(=O)=O)nc1S(=O)(=O)c1ccc(Cl)cc1 (configuration not stated)
  -0.34, 0.98
- CCc1ccc(C2C(C(=O)OCCOC)=C(C)Nc3nc4ccccc4n32)cc1 (configuration not stated)
  -0.68, 0.12
- O=C1c2cccnc2C(Nc2ccc(F)cc2)N1Cc1cccs1 (configuration not stated)
  x, 2.25
- CCCN(CCC)Cc1c(C(=O)OCC)nnn1-c1nonc1N
  1.34, 1.35
- CCOC(=O)c1[nH]c(C(=O)O)c(CC)c1C
  -1.81, 0.71
- COc1ccccc1NC(=O)NC1COc2ccccc2C1 (configuration not stated)
  x, 0.88
- Fc1cc(F)cc(-c2noc3ncnc(Nc4ccc5c(c4)OCCO5)c23)c1
  x, 1.81
- Cc1ccc(C2CC(=O)C3=C(C2)Nc2ccccc2NC3c2cccnc2)cc1 (configuration not stated)
  0.26, x
- CSc1nnc2c(n1)OC(C1CC=C(C)CC1)Nc1ccccc1-2 (configuration not stated)
  -1.27, -1.19
- Cc1cccc(N2CCN(Cc3nnc(-c4ccccc4C)o3)CC2C)c1 (configuration not stated)
  -0.23, -0.74
- Cc1ccc(-n2nnc(-c3nc(-c4ccccc4C)no3)c2N)cc1C
  x, 0.07
- CCCCn1cnc2c(oc3ccccc32)c1=O
  x, 1.6
- CCOc1ccccc1C1C(C#N)=C(C)NC2=C1C(=O)CC(c1ccc(Cl)cc1)C2 (configuration not stated)
  -1.12, 2.01
- Cc1ccc2nc(NCCc3ccccc3)c3nncn3c2c1
  -2.42, 0.85
- COC(=O)C(C#N)=C(SC)SC
  -2.33, x
- COc1cc(NC(=O)C(NS(=O)(=O)c2ccc3c(c2)CC(C)N3C(C)=O)C(C)C)cc(OC)c1 (configuration not stated)
  x, 0.84
- CCc1ccc(N2NC(=O)C(C)(C)C2=O)cc1
  -0.61, 0.21
- C(=N\NC1=NC2(CCCCC2)Cc2ccccc21)/c1ccncc1
  -2.06, x
- Cc1ccc(-c2nc(Cn3c(=O)cc(C)c4c(C)nn(C)c43)c(C)o2)cc1
  x, 0.84
- COc1ccccc1-n1cnc(N)c1C(=O)c1ccccc1
  -0.89, x
- Cc1cc(C)nc(SCC(=O)N2CCc3ccccc3C2)n1
  -2.55, 0.76
- CCN1CCN(S(=O)(=O)c2c(C)[nH]c(C)c2C(=O)N2CCCC2)CC1
  x, -0.76
- NC(=O)c1cc(S(=O)(=O)N2CCN(C3CCCC3)CC2)cs1
  x, 2.01
- COc1ccc(Nc2c(C)c(C)nc3ncnn23)cc1OC
  x, 1.57
- C/C(=N\O)C(C)(C)Nc1ccc(C(C)(C)C)cc1
  -1.72, x
- O=c1c2ccccc2n2c(-c3ccccc3)nnc2n1Cc1ccc(F)cc1
  -1.01, 0.89
- O=C(N/N=C/c1coc2ccccc2c1=O)c1cccnc1
  -0.74, x
- NC(=O)CSc1nc2c(c(=O)n1Cc1ccco1)C1(CCCCC1)Cc1ccccc1-2
  -1, x
- CCOC(=O)C1CCN(/C=C(\C#N)S(=O)(=O)c2ccc(Cl)cc2)CC1
  -0.46, x
- CC(C)CN[C@H]1CS(=O)(=O)C[C@@H]1S(=O)(=O)c1ccc(F)cc1
  -1.1, -0.18
- Cc1onc(-c2ccccc2)c1CNC(=O)NC1CCN(C(=O)OCc2ccccc2)CC1
  -3.06, x

A different layout for part of the listing above.
molecule	CDC25B-CDK2 inh	HIV TAR-Tat
CCOC(=O)C1CCN(/C=C(\C#N)S(=O)(=O)c2ccc(Cl)cc2)CC1	-0.46	x
Cc1ccc2nc(NCCc3ccccc3)c3nncn3c2c1	-2.42	0.85
CCOc1ccccc1C1C(C#N)=C(C)NC2=C1C(=O)CC(c1ccc(Cl)cc1)C2 (configuration not stated)	-1.12	2.01
COc1cc(NC(=O)C(NS(=O)(=O)c2ccc3c(c2)CC(C)N3C(C)=O)C(C)C)cc(OC)c1 (configuration not stated)	x	0.84
C/C(=N\O)C(C)(C)Nc1ccc(C(C)(C)C)cc1	-1.72	x
Cc1onc(-c2ccccc2)c1CNC(=O)NC1CCN(C(=O)OCc2ccccc2)CC1	-3.06	x
Cc1ccc(C2CC(=O)C3=C(C2)Nc2ccccc2NC3c2cccnc2)cc1 (configuration not stated)	0.26	x

Source: PubChem (Center for Chemical Genomics, University of Michigan)
